Source: PubChem BioAssay (several laboratories)
RecA splice inh – blocks M. tuberculosis RecA intein splicing; inhibition, %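 (about 9 µM by stock and volumes)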; cell-free RecA intein splicing, fluorescence; 290,000 tested, 0.75% active; in the data active = inhibition above about 30%; inconclusive = no clear call, values can overlap the other calls;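 note: 0% = vehicle wells and 100% = reference inhibitor control wells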
Target sequence (P9WHJ3 whole entry, looked up, canonical isoform): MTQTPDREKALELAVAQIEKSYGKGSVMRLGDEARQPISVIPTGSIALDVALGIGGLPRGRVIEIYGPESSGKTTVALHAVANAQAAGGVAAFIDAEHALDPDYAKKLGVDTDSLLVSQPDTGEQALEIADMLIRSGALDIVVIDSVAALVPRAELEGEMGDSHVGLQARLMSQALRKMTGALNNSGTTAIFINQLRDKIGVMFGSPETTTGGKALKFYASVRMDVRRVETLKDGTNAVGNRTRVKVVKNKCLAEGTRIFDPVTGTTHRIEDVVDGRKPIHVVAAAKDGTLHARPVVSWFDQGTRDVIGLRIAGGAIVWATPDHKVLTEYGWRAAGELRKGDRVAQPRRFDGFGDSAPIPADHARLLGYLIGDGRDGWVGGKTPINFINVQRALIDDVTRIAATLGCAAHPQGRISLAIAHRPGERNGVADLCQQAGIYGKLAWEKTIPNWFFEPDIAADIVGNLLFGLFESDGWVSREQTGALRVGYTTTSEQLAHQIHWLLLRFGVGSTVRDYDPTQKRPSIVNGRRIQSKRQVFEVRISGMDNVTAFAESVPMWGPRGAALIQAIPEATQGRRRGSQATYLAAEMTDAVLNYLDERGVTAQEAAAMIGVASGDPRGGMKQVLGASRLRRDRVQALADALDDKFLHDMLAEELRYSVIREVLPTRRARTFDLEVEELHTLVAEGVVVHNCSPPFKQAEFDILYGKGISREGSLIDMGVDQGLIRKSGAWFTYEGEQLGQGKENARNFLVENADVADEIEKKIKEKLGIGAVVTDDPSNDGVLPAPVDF
YopH PTP inh – blocks Yersinia enterocolitica YopH tyrosine phosphatase; fluorescence Ex485/Em525; inhibition, %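 (about 10 µM by stock and volumes)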; 140,000 tested, 0.16% active; AID 898;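 active = inhibition of 50% or more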;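 note: controls were vehicle for no effect and minimum signal wells for full effect; inactives centre near -20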
Mtb growth – M. tuberculosis H37Rv growth inhibitors, H37Rv strain (AID 1626) | 220,000 tested, 0.95% active | M. tuberculosis H37Rv growth inhibition; higher % means a stronger effect | inhibition, % at 10 µM; hits with a dose series show IC50 in µM;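 active = confirmed in a dose series; inconclusive = inhibition above 80% but not taken into the dose series; inactive = below 80% or under 30% at every dose of the series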;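 note: bacteria incubated seven days before Alamar blue readout; 0% = bacteria only wells and 100% = bacteria with antibiotic wells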
Mtb bLac sens – beta-lactam sensitization of Mtb H37Rv; M. tuberculosis H37Rv growth with meropenem, percent inhibition; hits of this screen are not shown here; inhibition, % at 25 µM; 330,000 tested, 0.27% active;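 active = about 74% or more and at least 40 points above the plate without the antibiotic, then above 30% in a dose series; inconclusive = first-round hits that could not be retested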;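 note: growth measured after seven days incubation then overnight dye step; 0% = bacteria only wells and 100% = bacteria with antibiotic; twin plates without the antibiotic show which effects depend on it; some results filed as inactive read as strong as hits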
Arbovirus inh – arbovirus infection inhibition; arbovirus infection cell-based antiviral screen; inhibition, % at 10 µM; 200,000 tested, 0.37% active;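 active = inhibition from about 30%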;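 note: bluetongue infection of BSR cells; cell survival read as ATP light after 72 h; 0% = infected wells without compound and 100% = uninfected wells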
Arbovirus inh repeat – further read-out of Arbovirus inh, marked with its call; inhibition, %; measured here: 10K subset replicate screen; many hits read low in the repeat;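 first of two repeat runs on a subset; 0% = infected and 100% = uninfected wells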
The depositor's hits bear a star; ? = inconclusive; · = no result given. These rows are one share of the data (hit frequency here may not be typical).

SMILES	RecA splice inh	YopH PTP inh	Mtb growth	Mtb bLac sens	Arbovirus inh	others
CCOc1ccc(N=C2NC(=O)S/C2=C\c2ccc(N(C)C)cc2)cc1	-10.0	-19	·	0	-11
Cc1ccc(C)c(OCC(=O)Nc2cc(C(=O)O)cc(C(=O)O)c2)c1	-1.7	·	0%	-6	5
COc1ccc(/C=C2\SC(=O)N(CC(=O)NCCC(C)C)C2=O)cc1OC	-66	·	-9%	8	·
CCOc1ccccc1Nc1ncccc1C(=O)N1CCCC1	-1.1	-13	-4%	8	-1
Cc1c(NC(=O)C2(c3ccccc3)CCOCC2)c(=O)n(-c2ccccc2)n1C	0.2	-25	-13%	-3	2
C/C(=N/NC(=O)c1ccc(C(C)(C)C)cc1)c1ccccn1	4.4	·	·	99	·
O=C(CSc1nnc(-c2cccc(S(=O)(=O)N3CCCCC3)c2)o1)c1ccc[nH]1	2.6	-31	4%	1	7
COc1ccccc1/C=N/NC(=O)c1ccccc1Cl	-0.8	·	-3%	-7	-1
Cc1ccc2nc(Nc3ccccc3O)nc(-c3ccccc3)c2c1	-1.1	4	13%	22	0
O=C(Nc1nccs1)c1ccc(COc2c(F)c(F)cc(F)c2F)cc1	1.1	·	·	95	·
CCOc1cc(CNc2ccc(OC)cc2)cc(Br)c1OCC(=O)NC(C)(C)C	20	-38	-4%	8	-27
Nc1ccccc1NC(=O)c1ccccc1N	-1.2	-46	5%	-3	6
O=C(/C=C/c1ccccc1)NC(=S)Nc1ccccc1O	0.2	·	·	?	·
COc1cccc(CN(CC(=O)NCc2ccco2)C(=O)CNS(=O)(=O)c2ccccc2)c1	0.4	·	·	-3	·
C=CCNCCOc1ccccc1-c1ccccc1	-6.9	10	5%	-4	2
O=C(O)CSc1nnc(CNc2cccc(C(F)(F)F)c2)n1Cc1ccco1	-0.8	-57	-12%	2	34*
CCCCN(CCCC)S(=O)(=O)c1ccc(OC)c2ncccc12	2.2	-16	-7%	0	3
Cc1cc2c(n1-c1ccc(Br)cc1)CC(C)(C)CC2=O	8.9	-65	-8%	4	-4
N#CC1=C(Nc2ccccc2)SC=C(c2ccc(Cl)c(Cl)c2)N=C1N1CCOCC1	0.4	-31	·	-11	-15
CCCCC1(C(=O)OCC)CC(CSC(=N)N)OC1=O (stereo not given)	0.2	·	-22%	4	1
O=C1CC(c2ccccc2)n2nc(NC(=O)c3ccccn3)nc2N1 (stereo not given)	0.6	-11	-15%	0	-8
OCCN1CNC(=S)NC1	-1.3	·	-2%	-1	·
CCOc1ccc(-n2c(Cc3cc(=O)[nH]c(=O)[nH]3)nnc2SCC)cc1	-1.9	-28	-1%	-4	-4
COc1ccc(NC(=O)Nc2ccc(F)cc2F)cc1	0.2	·	11%	-3	1
COc1ccccc1Oc1ccc(N/C=C2/CCCC2=O)cc1	10	-18	8%	10	-9
COc1cc(SC)ccc1C(=O)N1CCN(c2ccccc2)CC1	-6.8	·	-4%	4	-5
N=c1n(-c2ccccc2)c(O)cc(=O)n1-c1ccccc1	-2.3	-46	-8%	8	0	Arbovirus inh repeat=7
CC(C(=O)N1CCCC1)c1ccc([N+](=O)[O-])cc1 (stereo not given)	4.0	·	3%	-7	0
COc1ccc(S(=O)(=O)Nc2ccccc2OC)cc1NC(=O)Cc1cccs1	-5.2	-20	3%	10	0
CC(=O)Nc1ccc(NC(=O)COC(=O)c2ccccn2)cc1	·	·	3%	0	0
CCCC/C(=N/O)c1c(C)[nH]c2ccccc12	1.0	·	1%	-11	4
Nc1ccc2c3c(cccc13)C(=O)N(c1ccccc1)C2=O	-72	·	-13%	·	7
Cc1ccc(CN(C)CC(=O)Nc2ccc3c(c2)CCC3)cc1	3.6	·	54%	21	5
Cc1nc(N)nc(Cl)c1Cc1ccc(Cl)cc1	1.2	·	3%	-3	0
Cn1c(=O)c2c(SCc3cccc(C(F)(F)F)c3)nc(-c3ccco3)nc2n(C)c1=O	·	-36	44%	1	-22
O=C(Nc1ccccn1)NC12CC3CC(CC(C3)C1)C2	0.9	-24	7%	38	-5
CCOC(=O)c1c(C)nc2c(c1-c1cc(OC)c(OC)c(OC)c1)C(=O)c1ccccc1-2	-4.5	-74	-1%	15	0
O=C(CCN1CCCCC1=O)NC1CCCc2c1cnn2-c1ccccc1F (stereo not given)	0.5	·	·	-6	·
Cc1nn(-c2ncc(C(F)(F)F)cc2Cl)c(=O)n1-c1ccccc1Cl	-0.1	-26	·	·	-1
C#CCOc1ccccc1CNC1CCN(Cc2ccccc2)CC1	-0.5	·	·	-9	·
COc1ccc(Cc2nnc(Nc3ccc(C)cc3C)[nH]c2=O)cc1	·	-29	-3%	2	0	Arbovirus inh repeat=5
O=C(N/N=C1\CCSc2ccc(F)cc21)c1cccnc1	-1.8	·	0%	2	-10
CC1=CC=CN2C1=NC(=O)CC2(C)C(=O)N(CC(=O)NC1CCCC1)Cc1ccccc1 (stereo not given)	-0.9	·	·	-3	·
O=C(CSc1nc2ccccc2c(=O)[nH]1)Nc1ccc(Br)cc1	0.5	·	·	4	·
O=C(NCc1cc(C(F)(F)F)cc(C(F)(F)F)c1)C1CC(c2c(Cl)cccc2Cl)=NO1 (stereo not given)	6.2	-20	-3%	-11	-4
Nc1ncc(Br)cc1S(=O)(=O)NCCC(=O)N1CCN(c2ccccc2)CC1	0.2	·	·	3	·
CN1CCN(C(=O)c2ccc(CN3CCOCC3)cc2)CC1	4.3	-46	-12%	0	-4
CC(C)C(=O)NC(NC(=S)Nc1cccc2cccnc12)C(Cl)(Cl)Cl (stereo not given)	2.0	-34	-2%	-9	0
CC(C)c1ccc(OCC(=O)N(Cc2ccco2)C2CCS(=O)(=O)C2)cc1 (stereo not given)	0.3	·	·	6	·
CN(Cc1ccccc1)C(=O)c1[nH]cnc1C(=O)N[C@@H](Cc1ccccc1)C(=O)OCc1ccccc1	9.6	·	-15%	2	-16

Among those listed so far, 2 contain a COOH group.
SMILES	RecA splice inh	YopH PTP inh	Mtb growth	Mtb bLac sens	Arbovirus inh	others
Cc1ccc(C)c(OCC(=O)Nc2cc(C(=O)O)cc(C(=O)O)c2)c1	-1.7	·	0%	-6	5
O=C(O)CSc1nnc(CNc2cccc(C(F)(F)F)c2)n1Cc1ccco1	-0.8	-57	-12%	2	34*

Other records follow.
SMILES	RecA splice inh	YopH PTP inh	Mtb growth	Mtb bLac sens	Arbovirus inh	others
CC1(C)Cc2c(sc3ncnc(NN)c23)CO1	-5.7	·	·	6	·
Cc1cccc(NC(=O)c2ccc(S(=O)(=O)N3CCOCC3)cc2)n1	1.3	·	-3%	8	9
CN1CN=C(N[N+](=O)[O-])N(Cc2ccco2)C1	-1.6	-20	6%	3	2
CCOc1ccc(CC(=O)NCC(=O)NCc2cc(=O)n(C)c(=O)n2C)cc1	-0.4	·	·	4	·
COC(=O)CSc1nnc(CNS(=O)(=O)c2ccc(Br)cc2)n1C	-1.0	·	-5%	2	3
CCOC(=O)c1cnc(SCCN2CCOCC2)nc1N	3.2	·	-13%	-6	-3
COc1ccc(CNC(=O)c2ccc(C(C)C)cc2)cc1	7.3	·	-4%	4	-9
COc1ccc(NC(=O)CSc2nnc(Cn3cnc4ccccc43)n2C)cc1	-1.4	-11	-2%	-16	0
CCOC(=O)C1=C(O)C(=O)N(c2ccc(S(N)(=O)=O)cc2)C1c1ccc(OC)cc1 (stereo not given)	2.1	-48	-9%	7	8
CCOc1ccc(C(=O)NCCN2CCCCC2)c(OCC)c1	-1.7	·	·	-1	·
Cc1cccc(N(C)C(=O)CCS(=O)(=O)c2cccc3nonc23)c1	0.3	-36	2%	5	6	Arbovirus inh repeat=2
C1CSC2(N1)C1CC3CC2CC(C1)C31NCCS1 (stereo not given)	-5.8	7	-5%	-27	-1
COc1ccc(NC(=O)N2CCCC2C(=O)NC2CCCC2)cc1 (stereo not given)	0.3	·	·	-3	·
O=C(Cn1nc2n(c1=O)-c1ccccc1SC2)N/N=C/c1cccnc1	-1.3	·	-9%	0	·
COc1cc(C(=O)N/N=C/c2cc([N+](=O)[O-])cs2)cc(OC)c1OC	-8.4	-3	?	100	-17
COc1ccc(CNC(=O)C(=O)NCC2OCCN2S(=O)(=O)c2ccc(OC)c(OC)c2)cc1 (stereo not given)	5.3	·	·	-7	·
Cc1nn(-c2ccccc2)c(N2CCCC2)c1/C=N/NC(=O)c1cc(-c2cccnc2)nc2ccccc12	-0.2	-26	58%	90	19
COc1ccc(CCCC(=O)NCc2ccccc2)cc1C	3.3	-33	9%	10	-12
COC(=O)c1ccc(C(NC(=O)OCc2ccccc2)/C(C)=C/[C@@H](C)C(=O)NCc2ccc(OC)c(OC)c2)cc1 (stereo not given in full)	5.2	-27	4%	33	9
Cc1ccc2cc(CNCCc3ccccc3C)c(=O)[nH]c2c1	-1.4	·	·	-14	·
COc1ccccc1N1C(=O)C2C(C(=O)c3ccccc3)=NN(c3ccc(C)cc3)C2C1=O (stereo not given)	-1.5	·	0%	-3	·
NC(=O)c1ccc(NC(=O)Cc2csc(-c3ccccc3)n2)cc1	-2.9	·	2%	8	6

Reprinted from the results shown, 23 compounds:
SMILES	RecA splice inh	YopH PTP inh	Mtb growth	Mtb bLac sens	Arbovirus inh	others
C#CCOc1ccccc1CNC1CCN(Cc2ccccc2)CC1	-0.5	·	·	-9	·
COc1ccc(Cc2nnc(Nc3ccc(C)cc3C)[nH]c2=O)cc1	·	-29	-3%	2	0	Arbovirus inh repeat=5
O=C(N/N=C1\CCSc2ccc(F)cc21)c1cccnc1	-1.8	·	0%	2	-10
CC1=CC=CN2C1=NC(=O)CC2(C)C(=O)N(CC(=O)NC1CCCC1)Cc1ccccc1 (stereo not given)	-0.9	·	·	-3	·
O=C(CSc1nc2ccccc2c(=O)[nH]1)Nc1ccc(Br)cc1	0.5	·	·	4	·
O=C(NCc1cc(C(F)(F)F)cc(C(F)(F)F)c1)C1CC(c2c(Cl)cccc2Cl)=NO1 (stereo not given)	6.2	-20	-3%	-11	-4
Nc1ncc(Br)cc1S(=O)(=O)NCCC(=O)N1CCN(c2ccccc2)CC1	0.2	·	·	3	·
CN1CCN(C(=O)c2ccc(CN3CCOCC3)cc2)CC1	4.3	-46	-12%	0	-4
CC(C)C(=O)NC(NC(=S)Nc1cccc2cccnc12)C(Cl)(Cl)Cl (stereo not given)	2.0	-34	-2%	-9	0
CC(C)c1ccc(OCC(=O)N(Cc2ccco2)C2CCS(=O)(=O)C2)cc1 (stereo not given)	0.3	·	·	6	·
CN(Cc1ccccc1)C(=O)c1[nH]cnc1C(=O)N[C@@H](Cc1ccccc1)C(=O)OCc1ccccc1	9.6	·	-15%	2	-16
CC1(C)Cc2c(sc3ncnc(NN)c23)CO1	-5.7	·	·	6	·
Cc1cccc(NC(=O)c2ccc(S(=O)(=O)N3CCOCC3)cc2)n1	1.3	·	-3%	8	9
CN1CN=C(N[N+](=O)[O-])N(Cc2ccco2)C1	-1.6	-20	6%	3	2
CCOc1ccc(CC(=O)NCC(=O)NCc2cc(=O)n(C)c(=O)n2C)cc1	-0.4	·	·	4	·
COC(=O)CSc1nnc(CNS(=O)(=O)c2ccc(Br)cc2)n1C	-1.0	·	-5%	2	3
CCOC(=O)c1cnc(SCCN2CCOCC2)nc1N	3.2	·	-13%	-6	-3
COc1ccc(CNC(=O)c2ccc(C(C)C)cc2)cc1	7.3	·	-4%	4	-9
COc1ccc(NC(=O)CSc2nnc(Cn3cnc4ccccc43)n2C)cc1	-1.4	-11	-2%	-16	0
CCOC(=O)C1=C(O)C(=O)N(c2ccc(S(N)(=O)=O)cc2)C1c1ccc(OC)cc1 (stereo not given)	2.1	-48	-9%	7	8
CCOc1ccc(C(=O)NCCN2CCCCC2)c(OCC)c1	-1.7	·	·	-1	·
Cc1cccc(N(C)C(=O)CCS(=O)(=O)c2cccc3nonc23)c1	0.3	-36	2%	5	6	Arbovirus inh repeat=2
C1CSC2(N1)C1CC3CC2CC(C1)C31NCCS1 (stereo not given)	-5.8	7	-5%	-27	-1
